Screening data as filed in PubChem.
PK Bst = alters activity of Bacillus stearothermophilus pyruvate kinase; partly purified Bacillus stearothermophilus pyruvate kinase, luminescence ATP production; ribose 5-phosphate activator present at AC10; Potency, µM; 1.2% of 51,000 active; in the data active means potency below about 11 µM; inconclusive means mostly about 12 µM to 25 µM; inactive means weaker than that;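 the screen sought inhibitors and activators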;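 note: potency is the fitted concentration of half-maximal effect; scaled between full activation by ribose 5 phosphate and full inhibition by luteolin; about four in five hits inhibit and the cells do not say which; series up to 57 µM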
YjeE inh = inhibitors of E. coli YjeE (TsaE); 0.05% of 71,000 active; purified YjeE, fluorescence polarisation of a bound ADP probe; Potency, µM; P0AF67; active = well fitted falling curve; inconclusive = weaker or top-dose-only fall, or a rising curve; inactive = flat or poorly fitted curve;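 note: top concentration of the series not given in the record; excess ADP was the control for the full effect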
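Fluorescence polarization of a BODIPY Texas Red–ADP probe (2 uM) bound to purified YjeE (10 uM) was read after 15 min room-temperature incubation with compounds. Loss of polarization marks inhibitors; ADP serves as titrated control.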
An asterisk follows results filed as active; i = inactive; u = inconclusive; x = no result given. Some of the compounds tested; count on the stated rates, not on these rows.

SMILES	PK Bst	YjeE inh
O=C(Nc1cccc(S(=O)(=O)c2cccc(NC(=O)C3CC3)c2)c1)C1CC1	>57	i
Cc1nnc(SCC(=O)Nc2sc3c(c2C#N)CCCC3)[nH]c1=O	x	i
COc1ncc2ncc(=O)n(C3CC3)c2n1	x	i
Clc1ccc(Cn2cc(/C=N/n3cnnc3)c3ccccc32)cc1	>57	i
Cc1cc(=O)n(CC(C)O)c(O)c1C#N (centres undefined)	>57	i
COCc1nc(-c2ccc(-c3ccccc3)nc2OC)no1	x	i
C=CCn1c(C)cc(C(=O)COC(=O)C2CC(=O)N(Cc3ccccc3)C2)c1C (centres undefined)	>57	i
Cc1ccc2c(c1)NC(=O)C(CC(=O)NCCCN1CCCC1=O)O2 (centres undefined)	x	i
COc1cccc(-c2nc(CS(=O)(=O)CC(=O)NCCCN3CCc4ccccc4C3)c(C)o2)c1	>57	i
COc1ccc(N2C(=O)CC(N3CCCC4CCCCC43)C2=O)cc1 (centres undefined)	x	i
c1ccc(C2=Nn3c(nnc3-c3ccncc3)SC2)cc1	x	i
O=C(CCn1nnc2ccccc2c1=O)N[C@@H](Cc1ccccc1)C(=O)O	>57	i
O=C(CC(C(=O)N1CCc2ccccc21)n1ccnc1)NCC1CCCO1 (centres undefined)	>57	i
COc1cccc(NC(=O)CCSc2nnc3scc(-c4ccccc4)n23)c1	>57	i
O=C(Nc1ccc2c(c1)OCO2)Oc1ccccc1	i	i
CCOc1ccc(Nc2oc(-c3ccco3)nc2C#N)cc1	x	i
COc1ccc(NC(=O)c2ccc(NS(=O)(=O)c3c(C)noc3C)cc2)cc1OC	>57	i
Cc1ccc(Cl)cc1N1CCN(C(=O)CN2C(=O)c3cccc4cccc2c34)CC1	5.3*	i
COCCNC(=O)C(c1cccs1)N(C(=O)Cn1nnc2ccccc21)c1cccc(C(C)=O)c1 (centres undefined)	>57	i
COc1cc(CC(=O)Nc2ccc(S(=O)(=O)Nc3ncccn3)cc2)cc(OC)c1OC	>57	i
Cc1cc(N2CCN(S(=O)(=O)c3ccc(Cl)cc3)CC2)c2ccccc2n1	x	i
NNC(=O)c1ccc(OCc2nc3ccccc3[nH]2)cc1	x	i
CC(C)NC(=O)c1cnc(N2CCN(c3ccccn3)CC2)c2ccccc12	>11	i
Cc1ccnc(NS(=O)(=O)c2ccc(N=[N+]=[N-])cc2)n1	x	i
COc1cc(OC)cc(N(C(=O)c2ccco2)C(C(=O)NC2CCCC2)c2ccc(N(C)C)cc2)c1 (centres undefined)	>57	i
Cc1nnc(SCC(=O)Nc2ccccc2N2CCOCC2)s1	>57	i
COC(=O)[C@H](Cc1ccccc1)NC(=O)Nc1ccc(S(N)(=O)=O)cc1	>57	i
CCOc1ccc(OCC)c(NC(=O)CN2CCN(c3cccc(C)c3)C(C)C2)c1 (centres undefined)	>57	i
CCC(=O)N(Cc1cc2ccccc2[nH]c1=O)C(C)C	>57	i
CC(C)c1ccc(NC(=O)C2CC(=O)N=C(N)S2)cc1 (centres undefined)	>57	i
CCCC[C@H](CC)CN=C(N)NC(N)=NCCCCCCN=C(N)NC(N)=NC[C@@H](CC)CCCC	x	u
CCO/C=C/C(=O)N(C)CCC#N	>57	i
N#Cc1nc(COc2cccc(Cl)c2)oc1NCc1ccco1	x	i
CCN1CCN(S(=O)(=O)c2ccc3[nH]c(=O)oc3c2)CC1	x	i
CS(=O)(=O)N(CC(=O)NCC1CCCO1)c1cc(Cl)ccc1Cl (centres undefined)	x	i
CCOc1ccc(C2C=C(c3ccc(F)cc3)Nc3ncnn32)cc1 (centres undefined)	>57	i
Cc1oc(-c2ccccc2F)nc1CN1CCC(C(=O)NC2CCCCCCC2)CC1	>57	i
O=C(CC(c1ccc(F)cc1)c1ccco1)N1CCOCC1 (centres undefined)	>57	i
Cc1ccc(S(=O)(=O)N2CCCC(NC(=O)N3CCN(c4ccccc4)CC3)C2)cc1 (centres undefined)	>57	i
Cc1ccc(C(OC(=O)c2ccco2)C(=O)NCc2cccs2)cc1 (centres undefined)	>57	i
C=CCSc1nnc2c(n1)OC=Nc1ccc(Br)cc1-2	>57	i
O=C(Nc1ccc(O)cc1)c1cc(S(=O)(=O)N2CCCC2)ccc1Cl	x	i
CCOC(=O)c1cccc(NC(=O)CSc2nc3ccccc3c(=O)n2CCOC)c1	>57	i
O=C(CCCCCN1C(=O)c2ccccc2C1=O)NCc1ccccn1	>57	i
CC(=O)N1CCN(c2ccc(NC(=O)c3ccc(C(C)(C)C)cc3)cc2)CC1	>57	i
c1ccc2c(c1)nnn2CN1CCOCC1	x	i
O=C(Cn1nnc(-c2ccc(OCc3ccccc3F)cc2)n1)N1CCOCC1	x	i
Cc1ccc(C=NCc2ccncc2)c(O)c1	>57	i
COCc1nnc(NC(=O)c2sc3ccccc3c2Cl)s1	i	i
NC(=O)C1CCN(C2OC(=O)c3ccccc32)CC1 (centres undefined)	>26	x
COc1ccccc1N1CCN(C(=O)C2C3C=CC4(CN(Cc5ccccc5Cl)C(=O)C24)O3)CC1 (centres undefined)	>57	i
CC(=O)c1ccc(NS(=O)(=O)c2cccc(C)c2)cc1	>57	i
CN(c1ccccc1C(=O)Nc1cccc(C(F)(F)F)c1)S(C)(=O)=O	>57	i
CCOc1ccccc1NC(=O)NC1(C(=O)N2CCN3CCCC3C2)CCCCC1 (centres undefined)	>57	i
Cc1csc(/C(=N\O)c2csc(C)n2)n1	>57	i
COC(=O)c1c(N=CN(C)C)c(C#N)c2n1CCCC2	x	i
O=C(NCCN1CCOCC1)c1cc(-c2ccc(O)cc2)on1	x	i
CCOC(=O)Cn1nc(-c2ccc(Cl)cc2)ccc1=O	>57	i
Cc1cc(/C=N/n2cnnc2)c(C)n1-c1ccc(OCc2ccc(F)cc2)cc1	x	i
C#C[C@@]1(OC(C)=O)CC[C@@H]2[C@@H]3CCC4=C[C@@H](OC(C)=O)CC[C@H]4[C@H]3CC[C@]21C	x	i
Carrying on:
SMILES	PK Bst	YjeE inh
COc1cc(OC)c(NC2c3ccccc3C(=O)N2c2cc(C)ccn2)cc1Cl (centres undefined)	x	i
Cc1ccc2[nH]c3c(N4CCN(Cc5ccc6c(c5)OCO6)CC4)ncnc3c2c1	>26	x
CCOC(=O)C1=C(N)n2c(s/c(=C\c3ccco3)c2=O)=C(C(=O)OCC)C1c1ccco1 (centres undefined)	>57	i
CN(C)S(=O)(=O)CC12CCC(CC1=O)C2(C)C (centres undefined)	>57	i
CCC1CCc2c(sc3ncnc(N4CCOCC4)c23)C1 (centres undefined)	i	i
CCOc1ccc(OCC)c(NC(=O)c2[nH]c(C)c(C(C)=O)c2C)c1	>57	i
C[C@@H]1C[C@H](O)c2cc(Cl)ccc2N1	>57	i
Cc1cc(=O)n(CC(C)C)c(O)c1C#N	>57	i
O=C(Cn1cc2c(n1)CCCC2)Nc1cc(-c2cccc(Cl)c2)no1	x	i
COCCCNC(=O)c1c(N)n(-c2cccc(S(N)(=O)=O)c2)c2nc3ccccc3nc12	>57	i
Cc1cc(C(=O)NCc2cccnc2)cs1	x	i
CCSc1nc2c(c(=O)[nH]1)C(c1ccncc1)C(C(=O)OC(C)C)=C(C)N2 (centres undefined)	>57	i
COc1ccccc1N(CC(=O)Nc1cccnc1)S(C)(=O)=O	x	i
CCOC(=O)/C(C(C)=O)=C1\OC(=O)c2ccccc21	i	i
CCCn1c(SCC(=O)Nc2cccc(NC(C)=O)c2)nnc1C(C)C	>57	i
CCc1nnc(NC(=O)C2Cc3ccccc3C(=O)O2)s1 (centres undefined)	x	i
COc1cc(OC)c(-c2nn3c(-c4ccco4)nnc3s2)cc1OC	>57	i
N#CC1=C(N)OC2=C(C(=O)CCC2)C1c1ccncc1 (centres undefined)	>57	i
Cc1onc(-c2ccccc2Cl)c1C(=O)N1CCN(c2ccccc2)CC1	>57	i
O=C(NCCCN1CCCCC1)c1ccc2c(=O)n(CCc3ccccc3)c(=O)[nH]c2c1	>57	i
COc1cc(COCC(O)CN2CCOCC2)cc(OC)c1OC (centres undefined)	>57	i
O=C(CC(NS(=O)(=O)c1ccc(Cl)cc1)c1ccco1)NCc1ccco1 (centres undefined)	>57	i
O=C(O)C1CCCN1C(=O)OCc1ccccc1 (centres undefined)	>57	i
COc1ccc(N2CCN(C(=O)c3cc4c(-c5ccc(Cl)cc5)nn(C)c4s3)CC2)cc1	x	i
O=C(Nc1ccccc1)N1CC=C(c2ccc(F)cc2)CC1	>57	i
Cc1ccc(-c2nc3cc(N)ccc3o2)cc1	x	i
CCCCOc1ccc(-c2nnn(C(C)C(=O)OCC)n2)cc1 (centres undefined)	>57	i
COCCn1c(C)c(C(=O)O)sc1=S	>57	i
CCc1cc(=O)oc2cc(OCc3nn[nH]n3)ccc12	>57	i
O=C(NC(c1ccccc1)c1ccccc1)N1CCN(CCO)CC1	>57	i
Cc1c(NC(=O)C2(C)CCCCC2)c(=O)n(-c2ccccc2)n1C	x	i
Nc1ccc(S(=O)(=O)N2CCCc3ccccc32)cc1	x	i
CCn1c(SCC(=O)O)nc2sc3c(c2c1=O)CCC3	>26	x
COC(=O)C1=C(C)Nc2ncnn2C1c1ccc(OCc2ccccc2)cc1 (centres undefined)	>57	i
COC(=O)C1=C(C)OC(N)=C(C#N)C1c1cc(OC)ccc1OC (centres undefined)	>57	i
CCCc1cc(C(=O)NC2CCCC2)no1	x	i

In a second layout: results already given.
Value order: PK Bst	YjeE inh
O=C(CC(NS(=O)(=O)c1ccc(Cl)cc1)c1ccco1)NCc1ccco1 (centres undefined)
  >57	i
O=C(O)C1CCCN1C(=O)OCc1ccccc1 (centres undefined)
  >57	i
COc1ccc(N2CCN(C(=O)c3cc4c(-c5ccc(Cl)cc5)nn(C)c4s3)CC2)cc1
  x	i
O=C(Nc1ccccc1)N1CC=C(c2ccc(F)cc2)CC1
  >57	i
Cc1ccc(-c2nc3cc(N)ccc3o2)cc1
  x	i
CCCCOc1ccc(-c2nnn(C(C)C(=O)OCC)n2)cc1 (centres undefined)
  >57	i
COCCn1c(C)c(C(=O)O)sc1=S
  >57	i
CCc1cc(=O)oc2cc(OCc3nn[nH]n3)ccc12
  >57	i
O=C(NC(c1ccccc1)c1ccccc1)N1CCN(CCO)CC1
  >57	i
Cc1c(NC(=O)C2(C)CCCCC2)c(=O)n(-c2ccccc2)n1C
  x	i
Nc1ccc(S(=O)(=O)N2CCCc3ccccc32)cc1
  x	i
CCn1c(SCC(=O)O)nc2sc3c(c2c1=O)CCC3
  >26	x
COC(=O)C1=C(C)Nc2ncnn2C1c1ccc(OCc2ccccc2)cc1 (centres undefined)
  >57	i
COC(=O)C1=C(C)OC(N)=C(C#N)C1c1cc(OC)ccc1OC (centres undefined)
  >57	i
CCCc1cc(C(=O)NC2CCCC2)no1
  x	i

(cont.)
SMILES	PK Bst	YjeE inh
CCOC(=O)CCc1c(C)nc2c(c(C)nn2C(C)(C)C)c1C	x	i
Nc1cccc(C(=O)Nc2ccco2)c1	>57	i
COc1ccc(NS(=O)(=O)c2ccc(O)c(C(=O)OCC(=O)N3CC(C)OC(C)C3)c2)cc1 (centres undefined)	>57	i
N#Cc1nc(-c2ccccc2)oc1NCCN1CCCCC1	>57	i
COc1cccc2c(C)c(C(=O)O)[nH]c12	>57	i
Cc1nc(SCC(C)C)[nH]c(=O)c1Cc1ccccc1	>57	i
O=C(Cc1cn2ccsc2n1)OCc1ccccc1	>57	i
COC(=O)COc1ccc(S(=O)(=O)N2CCOCC2)cc1	>57	i
C=C[C@@]1(C)CC(=O)[C@@]2(O)[C@@]3(C)[C@@H](O)CCC(C)(C)[C@@H]3[C@H](O)[C@H](OC(C)=O)[C@@]2(C)O1	x	i
CC(C)c1nc(SCc2ccccn2)c2c(=O)n(C)c(=O)n(C)c2n1	x	i
CCC(C)[C@H](NC(=O)NCc1cccc(OC)c1)C(=O)O (some centres undefined)	>57	i
CCOC(=O)c1cnc(SCC(=O)Nc2nnc(CC)s2)nc1N	>57	i
C=C(C)COc1ccc(-c2n[nH]c(C)c2-c2ccccc2)c(O)c1	>57	i
Cc1ccccc1CSc1nnc(-c2ccccn2)n1N	>57	i
Cc1cc(C)cc(NC(=O)CSc2nnc(-c3ccccc3Br)o2)c1	>57	i
COc1cccc(C(=O)NC2CCN(CC(=O)NCc3ccccc3OC)CC2)c1	>57	i
CSc1cccc(NC(=O)CSc2ccccc2)c1	>57	i
Cc1noc(C)c1C(=O)NC(C)c1ccc2c(c1)OCO2 (centres undefined)	>57	i
COc1cccc(Cn2c(=O)c(-c3cccc(C#N)c3)nc3cnc(N4CCOCC4)nc32)c1	x	i
CCOC(=O)c1cnc2ccc(C(=O)OC)cc2c1NCc1ccco1	>57	i
Cc1ccc(C(=O)CSc2nnc(-c3ccco3)o2)o1	>57	i
O=C(CCNC(=O)Cn1cnc2ccccc2c1=O)NCC1COc2ccccc2O1 (centres undefined)	>57	i
COc1ccc(C(=O)O)cc1S(=O)(=O)Nc1cccc(C)c1	>57	i
O=C(CSc1ccccc1C(=O)NCCCN1CCCC1=O)NCc1ccco1	>57	i
NC(=O)c1ccc[n+]([C@@H]2O[C@H](COP(=O)([O-])OP(=O)(O)OC[C@H]3O[C@@H](n4cnc5c(N)ncnc54)[C@@H](O)[C@@H]3O)[C@@H](O)[C@@H]2O)c1	x	i
COc1cc(OC)nc(NC(=O)CN2CCN(c3ccc(F)cc3)CC2)n1	>57	i
NCCC[C@@H](CC(=O)N[C@@H]1CCNC[C@H]1C(=O)N[C@H](CC(=O)N[C@@H](CCC(=O)O)CC(=O)O)Cc1c[nH]c2ccccc12)NC(=O)C[C@H](Cc1c[nH]c2ccccc12)NC(=O)[C@@H]1CNCC[C@H]1N	x	i
